# Env fusion inh: HIV envelope-mediated fusion inhibition. HeLa-JRFL Env/CEM21 cell fusion, luciferase. inhibition, % at 12.3 µM. 360,000 tested, 1.1% active;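 active means mean replicate inhibition score of at least 50 and every replicate individually at or above 50; inconclusive means only one of the two criteria met; inactive means mean below 50 and not all replicates reaching 50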;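 further: 0% = plate neutral controls and 100% = maraviroc near 300 nM; one replicate is shown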
# Active calls of the source: *; ? = inconclusive; [ ] = dose if it differs, or a comment. These rows are one share of the data; rates above refer to the full screens.
Env fusion inh,smiles
-24,C[C@@H]1CN([C@@H](C)CO)C(=O)c2ccccc2-c2ccccc2CO[C@@H]1CN(C)Cc1ccc(Cl)c(Cl)c1
-4[16.7 µM],C[C@@H]1CN([C@H](C)CO)C(=O)Cc2cc(NC(=O)Nc3cccc4ccccc34)ccc2O[C@@H]1CN(C)S(C)(=O)=O
-12[16.7 µM],CCCC(=O)Nc1ccc2c(c1)C(=O)N(C)C[C@@H](OC)[C@H](C)CN(C(=O)C1CCCC1)[C@@H](C)CO2
-89,Cc1[nH]c2ccccc2c1CC(=O)Nc1ccc(Nc2cccnc2)c(-c2ccc(Cl)c(Cl)c2)c1
0,O=[N+]([O-])c1cc2c(ccc3occc32)o1
-6,CN(N=Cc1ccc2c(c1)OCO2)C(=O)c1ccccc1N
15[16.7 µM],C[C@@H]1CN([C@@H](C)CO)C(=O)c2cc(NS(=O)(=O)c3cn(C)cn3)ccc2O[C@H]1CN(C)S(=O)(=O)c1cn(C)cn1
-5[16.7 µM],C[C@@H]1CCCCO[C@@H](CN(C)Cc2ccc3c(c2)OCO3)[C@H](C)CN([C@H](C)CO)C(=O)c2cc(NC(=O)C3CCCCC3)ccc2O1
-2[16.7 µM],C[C@H](CO)N1C[C@H](C)[C@H](CN(C)Cc2cccnc2)Oc2ncc(C#CC3CCCCC3)cc2C1=O
9,CCCCCn1cc(CCC(=O)Nc2ccc(N(C)c3ccccn3)cc2)c2ccccc21
1[16.7 µM],COc1ccc(NC(=O)Nc2ccc3c(c2)C(=O)N([C@H](C)CO)C[C@H](C)[C@H](CN(C)CC2CC2)OCCCC[C@@H](C)O3)cc1
?,O=C(N[C@H](Cc1ccccc1)C(=O)N1CCN(Cc2ccccn2)CC1)[C@H]1O[C@@H](n2ccc(=O)[nH]c2=O)[C@H](O)[C@@H]1O
2[16.7 µM],O=C(C[C@@H]1CC[C@@H]2[C@H](COC[C@H](O)CN2C(=O)c2cnccn2)O1)NCc1ccc(F)cc1
21,C=CC1=CCN(S(=O)(=O)C(C)(C)C)[C@@H]1CCO
-16[16.7 µM],C[C@H](CO)N1C[C@H](C)[C@H](CN(C)S(=O)(=O)c2ccc(F)cc2)Oc2ccc(NC(=O)Nc3ccc4c(c3)OCO4)cc2CC1=O
-10[16.7 µM],COCC(=O)Nc1ccc2c(c1)C(=O)N(C)C[C@@H](OC)[C@H](C)CN(Cc1ccccn1)[C@H](C)CO2
0,COc1ccc(C(=O)NCC2CCN(C(=O)C(=O)c3cc4ccccc4o3)CC2)cc1
0[16.7 µM],COCC1=C([C@H](O)c2ccccc2)[C@H](CO)n2c(=O)n(-c3ccccc3)c(=O)n2C1
20[16.7 µM],C[C@@H]1CCCCO[C@@H](CN(C)CC2CC2)[C@@H](C)CN([C@H](C)CO)C(=O)c2cc(NC(=O)C3CCCCC3)ccc2O1
-7[16.7 µM],CCCNC(=O)Nc1ccc2c(c1)C(=O)N(C)C[C@H](OC)[C@H](C)CN(Cc1ccc(-c3ccccn3)cc1)[C@H](C)CO2
-10[16.7 µM],COc1ccc2c3c(n(C)c2c1)[C@@H](CO)N(Cc1ccccn1)CC31CCN(Cc2ccccn2)CC1
31,CC(C)CN1CCC(CN2C(=S)NC[C@@H]2Cc2ccccc2)CC1
-4[16.7 µM],C[C@H](CO)N1C[C@H](C)[C@H](CN(C)S(=O)(=O)c2ccccc2)Oc2ccc(NC(=O)Cn3cnnn3)cc2C1=O
-2[16.7 µM],CO[C@@H]1CN(C)C(=O)c2cc(NC(=O)c3ccc4c(c3)OCO4)ccc2OC[C@H](C)N(CC2CC2)C[C@@H]1C
-8[16.7 µM],C[C@@H]1CCCCO[C@H](CN(C)C)[C@H](C)CN([C@H](C)CO)C(=O)c2cc(NS(=O)(=O)c3cn(C)cn3)ccc2O1
-9[16.7 µM],COc1ccc2c3c([nH]c2c1)[C@@H](CO)N(C(=O)c1ccccc1)CC31CCN(Cc2cccnc2)CC1
24,COCc1cc(N2CCNC[C@H]2C)ccc1N1CCS(=O)(=O)CC1
5[16.7 µM],O=C(C[C@@H]1CC[C@H]2[C@@H](COC[C@@H](O)CN2C(=O)c2ccc3c(c2)OCO3)O1)NC1CCCC1
24,N#Cc1ccc(OCCCN2CCC(C(O)(C3=CCCC3)c3ccccc3)CC2)cc1 (stereo unspecified)
-7[16.7 µM],Cc1ccccc1S(=O)(=O)Nc1ccc2c(c1)C(=O)N(C)[C@@H]1CC[C@H](CC(=O)O)O[C@H]1CO2
16,COc1ccc(CCN2CC(=O)N3CCc4ccc(N5CCOCC5)cc4C3CC2=O)cc1OC (stereo unspecified)
-7[16.7 µM],CCCN(C)C[C@H]1OCc2ccccc2-c2ccccc2C(=O)N([C@@H](C)CO)C[C@H]1C
0[16.7 µM],CNC[C@@H]1Oc2ccc(NC(=O)Nc3ccccc3)cc2C(=O)N([C@@H](C)CO)C[C@@H]1C
-12[16.7 µM],CCCC#Cc1ccc2c(c1)O[C@H](CN(C)S(=O)(=O)c1cccc(OC)c1)[C@@H](C)CN([C@@H](C)CO)S2(=O)=O
-22[16.7 µM],CC(C)c1cn(CC[C@@H]2CC[C@H](NC(=O)C3CC3)[C@@H](CO)O2)nn1
-11,Nc1[nH]c(C(=O)c2ccccc2)c(-c2ccc(F)cc2)c1C(=O)c1c[nH]c2ccccc12
22[16.7 µM],CC(C)NC(=O)Nc1cccc2c1O[C@@H](CN(C)Cc1ccc(Cl)c(Cl)c1)[C@H](C)CN([C@H](C)CO)C2=O
40[16.7 µM],C[C@H]1CN([C@@H](C)CO)C(=O)c2c(c3ccccc3n2C)-c2ccccc2CO[C@H]1CN(C)S(=O)(=O)Cc1ccccc1
-3[16.7 µM],CN(C)Cc1cn(CC[C@H]2CC[C@@H](NC(=O)Cc3cccnc3)[C@@H](CO)O2)nn1
10[16.7 µM],CCCC(=O)Nc1ccc2c(c1)C(=O)N(C)C[C@@H](OC)[C@@H](C)CN(Cc1nccs1)[C@H](C)CO2
-4[16.7 µM],CO[C@@H]1CN(C)C(=O)c2cc(NC(=O)Nc3ccc(Cl)cc3)ccc2OC[C@H](C)N(C(=O)Nc2c(C)noc2C)C[C@@H]1C
0[16.7 µM],O=C(C[C@H]1C[C@@H]2c3cc(NC(=O)Nc4ccccc4)ccc3O[C@@H]2[C@@H](CO)O1)NCCN1CCCCC1
19[16.7 µM],CO[C@@H]1CC[C@@H]2CCOc3ccc(C#N)cc3C(=O)N(C)C[C@H](c3ccccc3)CC(=O)N(C)C[C@@H]1O2
14[16.7 µM],C[C@H](CO)N1C[C@H](C)[C@H](CN(C)C(=O)Nc2ccc3c(c2)OCO3)Oc2ccc(NC(=O)Nc3ccc(F)cc3)cc2C1=O
5[16.7 µM],CCC(=O)N1C[C@@H](C)[C@@H](OC)CN(C)C(=O)c2cc(NC(=O)CC(F)(F)F)ccc2OC[C@H]1C
19[16.7 µM],COc1ccccc1C(=O)Nc1ccc2c(c1)C(=O)N(C)C[C@@H](OC)[C@@H](C)CN(C)[C@@H](C)CO2
2[16.7 µM],O=C(N[C@@H]1CC[C@@H](CCNS(=O)(=O)Cc2ccccc2)O[C@H]1CO)c1cnccn1
-1[16.7 µM],CO[C@H]1CN(C)C(=O)c2cc(NC(=O)C3CC3)ccc2OC[C@H](C)N(C(=O)NC(C)C)C[C@@H]1C
-13,Cc1ccc(Cc2c(-c3cccc(Br)c3)nc3c4ccccc4ccn23)cc1
-6[16.7 µM],C[C@@H]1CCCCO[C@H](CN(C)C)[C@@H](C)CN([C@H](C)CO)C(=O)c2cc(NS(=O)(=O)c3cn(C)cn3)ccc2O1

# Fetched by structure from above, 2 records:
Env fusion inh,smiles
24,COCc1cc(N2CCNC[C@H]2C)ccc1N1CCS(=O)(=O)CC1
2[16.7 µM],O=C(N[C@@H]1CC[C@@H](CCNS(=O)(=O)Cc2ccccc2)O[C@H]1CO)c1cnccn1

# Next part
Env fusion inh,smiles
-73[16.7 µM],CC(C)C(=O)Nc1ccc2c(c1)C(=O)N(C)[C@H]1CC[C@@H](CC(=O)NCCc3ccccc3)O[C@H]1CO2
7[16.7 µM],N#C[C@H]1[C@H](c2ccccc2-c2cccc(F)c2)[C@H](CO)N1C(=O)C1CC1
-2[16.7 µM],C[C@@H]1CCCCO[C@H](CN(C)Cc2ccncc2)[C@@H](C)CN([C@H](C)CO)C(=O)c2cc(NC(=O)Nc3ccccc3)ccc2O1
18[16.7 µM],CCCNC(=O)Nc1ccc2c(c1)OC[C@@H](C)N(Cc1cccnc1)C[C@H](C)[C@H](OC)CN(C)C2=O
-15[16.7 µM],C[C@@H]1CN([C@H](C)CO)C(=O)CCCn2cc(nn2)CO[C@H]1CN(C)Cc1ccc2cccnc2c1
5[16.7 µM],CC(C)NC(=O)Nc1ccc2c(c1)C(=O)N([C@@H](C)CO)C[C@@H](C)[C@H](CN(C)C(=O)CCC(F)(F)F)OCCCC[C@H](C)O2
-9[16.7 µM],Cc1noc(C)c1S(=O)(=O)Nc1ccc2c(c1)CC(=O)N([C@@H](C)CO)C[C@@H](C)[C@H](CN(C)Cc1ccc(-c3ccccc3)cc1)O2
31[16.7 µM],C[C@@H](NC(=O)C[C@H]1C=C[C@@H](NC(=O)Nc2ccc3c(c2)OCO3)[C@@H](CO)O1)c1ccccc1
-12[16.7 µM],CO[C@@H]1CN(C)C(=O)c2cc(NC(=O)C3CCCCC3)ccc2OC[C@H](C)N(Cc2nccs2)C[C@H]1C
-1[16.7 µM],CO[C@H]1CN(C)C(=O)c2cc(NS(C)(=O)=O)ccc2OC[C@H](C)N(C(=O)NC(C)C)C[C@@H]1C
-3[16.7 µM],COc1cccc(C(=O)Nc2ccc3c(c2)C(=O)N(C)C[C@@H](OC)[C@H](C)CN(C(C)=O)[C@@H](C)CO3)c1
-16[16.7 µM],CNC[C@@H]1Oc2c(NC(=O)Nc3ccc(OC)cc3)cccc2C(=O)N([C@@H](C)CO)C[C@H]1C
-19[16.7 µM],C[C@@H]1CN([C@@H](C)CO)S(=O)(=O)c2ccc(C#CCC3CCCC3)cc2O[C@H]1CN(C)Cc1cccc(C(=O)O)c1
8[16.7 µM],O=C([C@@H]1[C@@H](CO)[C@@H]2Cn3c(ccc(-c4cccnc4)c3=O)[C@@H]2N1CCC(F)(F)F)N1CCOCC1
-5,COc1cccc(C=NNC(=S)NC2CC3CCC2C3)c1O (stereo unspecified)
-1[16.7 µM],CCOC(=O)c1cc2c(c(-c3cccc(Br)c3)n1)[C@H](CCO)N(C(=O)NC(C)C)C2
12,O=C(O)CC(Sc1ccc(Cl)cc1)C(=O)Nc1ccccc1 (stereo unspecified)
-11[16.7 µM],COc1ccc2c3c(n(C)c2c1)[C@H](CO)N(C(=O)c1cnccn1)CC31CN(C(=O)c2cnccn2)C1
-6[16.7 µM],CCC(=O)Nc1ccc2c(c1)OC[C@@H](C)N(C(=O)COC)C[C@@H](C)[C@H](OC)CN(C)C2=O
6[16.7 µM],CCC(=O)N1C[C@@H](C)[C@@H](OC)CN(C)C(=O)c2ccc(NC(=O)c3cc(C)on3)cc2OC[C@@H]1C
12[16.7 µM],C[C@H]1CN([C@@H](C)CO)S(=O)(=O)c2ccc(C#CC3CC3)cc2O[C@@H]1CN(C)Cc1cncnc1
4[16.7 µM],C[C@@H](NC(=O)C[C@@H]1CC[C@@H]2[C@H](COC[C@@H](O)CN2C(=O)Nc2cccc(Cl)c2)O1)c1ccccc1
6[16.7 µM],COc1ccccc1NC(=O)N(C)C[C@@H]1OCc2ccccc2-c2ccccc2C(=O)N([C@H](C)CO)C[C@H]1C
-15[16.7 µM],COc1cccc(C(=O)Nc2ccc3c(c2)C(=O)N(C)[C@@H]2CC[C@@H](CC(=O)NCCCN4CCOCC4)O[C@H]2CO3)c1
-14[16.7 µM],C[C@@H]1CCCCO[C@@H](CN(C)C(=O)c2ccncc2)[C@H](C)CN([C@@H](C)CO)C(=O)c2cc(NC(=O)c3ccccc3)ccc2O1
9[16.7 µM],COc1ccc2c3c(n(C)c2c1)[C@@H](CO)N(C(=O)CN1CCOCC1)CC31CN(C(=O)Nc2cccc(F)c2)C1
-7[16.7 µM],COc1ccc(NC(=O)N(C)C[C@H]2Oc3c(NC(=O)NC4CCCCC4)cccc3C(=O)N([C@@H](C)CO)C[C@@H]2C)cc1
-237,Cc1cc(NN=Cc2ccccn2)nc2ccccc12
-3[16.7 µM],COc1ccccc1CNC(=O)C[C@@H]1C[C@H]2c3cc(NC(=O)C4CCOCC4)ccc3O[C@H]2[C@@H](CO)O1
10,Nc1[nH]c(C(=O)c2ccc(Br)cc2)c(-c2ccc(Br)cc2)c1C(=O)NCc1cccc2ccccc12

# Next section; it opens with the two that closed the last part.
Env fusion inh,smiles
-3[16.7 µM],COc1ccccc1CNC(=O)C[C@@H]1C[C@H]2c3cc(NC(=O)C4CCOCC4)ccc3O[C@H]2[C@@H](CO)O1
10,Nc1[nH]c(C(=O)c2ccc(Br)cc2)c(-c2ccc(Br)cc2)c1C(=O)NCc1cccc2ccccc12
23[16.7 µM],C[C@H](CO)N1C[C@H](C)[C@H](CN(C)CC2CC2)OCc2ccccc2-c2ccccc2C1=O
-21,COc1ccccc1C(=O)N1CCN(C(=O)[C@H](CCc2ccccc2)NC(=O)[C@H]2O[C@@H](n3cnc4c(N)ncnc43)[C@H](O)[C@@H]2O)CC1
-32,CCCCS(=O)(=O)N1CCCc2nc(-c3ccc(F)cc3)ccc21
3,COC(=O)C1=C(C)N(Cc2cccc(C(F)(F)F)c2)C(=NCc2ccc(C(F)(F)F)cc2)NC1c1ccc(C(F)(F)F)cc1 (stereo unspecified)

# 4 entries out of the list, arranged by number of heavy atoms, lowest first:
Env fusion inh,smiles
-32,CCCCS(=O)(=O)N1CCCc2nc(-c3ccc(F)cc3)ccc21
23[16.7 µM],C[C@H](CO)N1C[C@H](C)[C@H](CN(C)CC2CC2)OCc2ccccc2-c2ccccc2C1=O
-3[16.7 µM],COc1ccccc1CNC(=O)C[C@@H]1C[C@H]2c3cc(NC(=O)C4CCOCC4)ccc3O[C@H]2[C@@H](CO)O1
3,COC(=O)C1=C(C)N(Cc2cccc(C(F)(F)F)c2)C(=NCc2ccc(C(F)(F)F)cc2)NC1c1ccc(C(F)(F)F)cc1 (stereo unspecified)
